From PubChem BioAssay
Arbovirus inh: antivirals against arbovirus infection, primary screen, cell-based, full library, 10K replicate subset. 0.37% of 200,000 active. inhibition, % at 10 µM. AID 1251, 2008. arbovirus infection cell-based antiviral screen;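 active = inhibition from about 30%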;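 note: bluetongue infection of BSR cells; cell survival read as ATP light after 72 h; 0% = infected wells without compound and 100% = uninfected wells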
YopH inh: YopH tyrosine phosphatase inhibitors, primary screen, biochemical, fluorescence Ex485/Em525; inhibition, %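 (about 10 µM by stock and volumes)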; 0.16% of 140,000 active; AID 898, 2007;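 active = inhibition of 50% or more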;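 note: controls were vehicle for no effect and minimum signal wells for full effect; inactives centre near -20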
Mtb H37Rv: M. tuberculosis H37Rv growth inhibitors, H37Rv strain (AID 1626) | one-dose inhibition, % at 10 µM; IC50 in µM for titrated hits | M. tuberculosis H37Rv growth inhibition; higher % means a stronger effect | 0.95% of 220,000 active;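 active = confirmed in a dose series; inconclusive = inhibition above 80% but not taken into the dose series; inactive = below 80% or under 30% at every dose of the series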;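 note: bacteria incubated seven days before Alamar blue readout; 0% = bacteria only wells and 100% = bacteria with antibiotic wells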
Mtb bLac sens: beta-lactam sensitization of Mtb H37Rv, H37Rv; M. tuberculosis H37Rv growth with meropenem, percent inhibition; hits of this screen are not shown here; inhibition, % at 25 µM; 0.27% of 330,000 active; AID 434955, 2010;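 active = about 74% or more and at least 40 points above the plate without the antibiotic, then above 30% in a dose series; inconclusive = first-round hits that could not be retested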;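 note: growth measured after seven days incubation then overnight dye step; 0% = bacteria only wells and 100% = bacteria with antibiotic; twin plates without the antibiotic show which effects depend on it; some results filed as inactive read as strong as hits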
RecA intein inh: Mtb RecA intein splicing inhibitors, primary screen, biochemical, fluorescence, HTS | cell-free RecA intein splicing | inhibition, %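 (about 9 µM by stock and volumes)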 | 0.75% of 290,000 active; in the data active = inhibition above about 30%; inconclusive = no clear call, values can overlap the other calls;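 note: 0% = vehicle wells and 100% = reference inhibitor control wells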
Target sequence (P9WHJ3 whole entry, looked up): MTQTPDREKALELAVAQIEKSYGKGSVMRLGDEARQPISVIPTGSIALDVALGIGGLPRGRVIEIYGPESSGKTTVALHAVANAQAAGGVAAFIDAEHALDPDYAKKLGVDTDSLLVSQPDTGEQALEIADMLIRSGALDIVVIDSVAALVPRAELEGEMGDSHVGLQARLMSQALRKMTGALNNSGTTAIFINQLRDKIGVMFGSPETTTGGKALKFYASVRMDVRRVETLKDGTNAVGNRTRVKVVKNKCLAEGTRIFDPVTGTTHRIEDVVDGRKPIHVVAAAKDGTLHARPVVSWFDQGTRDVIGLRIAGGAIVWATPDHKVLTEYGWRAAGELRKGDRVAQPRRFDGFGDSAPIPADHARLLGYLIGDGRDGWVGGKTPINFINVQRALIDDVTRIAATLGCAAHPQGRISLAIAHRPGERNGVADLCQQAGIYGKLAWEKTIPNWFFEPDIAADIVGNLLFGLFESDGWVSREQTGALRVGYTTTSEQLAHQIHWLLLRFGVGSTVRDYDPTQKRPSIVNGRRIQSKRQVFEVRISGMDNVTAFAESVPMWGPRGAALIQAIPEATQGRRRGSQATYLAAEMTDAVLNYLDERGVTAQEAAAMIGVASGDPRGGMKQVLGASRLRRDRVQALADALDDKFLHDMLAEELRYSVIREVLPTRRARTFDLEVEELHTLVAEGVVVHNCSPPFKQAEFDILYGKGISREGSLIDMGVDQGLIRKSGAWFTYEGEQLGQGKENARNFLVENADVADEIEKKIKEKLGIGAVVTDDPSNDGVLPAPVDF
Arbovirus inh repeat: further read-out of Arbovirus inh, marked with its call; inhibition, %; measured here: 10K subset replicate screen; many hits read low in the repeat;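 first of two repeat runs on a subset; 0% = infected and 100% = uninfected wells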
* marks the source's active call; other numbers are inactive results; ? = inconclusive; . = not tested or not shown. These rows are one share of the data (hit frequency here may not be typical).

SMILES	Arbovirus inh	YopH inh	Mtb H37Rv	Mtb bLac sens	RecA intein inh	others
Cc1nn(-c2ccccc2)c(NC(=O)c2cccs2)c(-c2ccccc2)c1=O	-2	-29	2%	-6	-4.5
COc1cccc(/C=C2\Oc3cc(OCC(=O)N4CCCCC4)ccc3C2=O)c1OC	.	.	.	1	-3.8
COC(=O)Nc1nc(-c2ccccc2)c(C(=O)c2ccccc2)s1	-15	-25	5%	5	0.8
CCOc1cccc(C(=O)Nc2nnc(-c3ccco3)s2)c1	5	-17	4%	-9	.	Arbovirus inh repeat=2
O=C(Nc1ccc(S(=O)(=O)Nc2cnc3ccccc3n2)cc1)c1cccc(OC(F)F)c1	.	.	.	1	1.2
NC(=O)C1CCN(C2CC(=O)NC2=O)CC1 (centres undefined)	15	.	3%	-3	-1.8
Cn1c(O)c(C=Nc2ccc(Cl)cc2)c(=O)n(C)c1=O	-1	-43	.	-10	6.2	Arbovirus inh repeat=-5
CCOc1ccc(CCNC(=O)CCC(=O)N2CCOc3ccc(C)cc32)cc1OCC	.	.	.	4	2.8
COc1cc(S(=O)(=O)NC(C)C)ccc1Cl	1	2	-21%	0	3.5
CN1CCN(S(=O)(=O)c2cccc(C(=O)Nc3cccc(S(N)(=O)=O)c3)c2)CC1	.	.	.	-1	0.5
COc1ccc(CNC(=O)c2ccc(NC(=O)CC3SC(N4CCCCC4)=NC3=O)cc2)cc1 (centres undefined)	-3	-34	4%	65	-2.1
O=C(COCC(=O)NCc1ccccc1)NCc1ccccc1	1	.	-5%	-2	6.8
Cc1ccnc(NC(=O)C2CCC(CNc3c(N4CCCC4)c(=O)c3=O)CC2)c1 (centres undefined)	7	-23	-5%	5	1.5	Arbovirus inh repeat=1
CCOc1ncccc1C(=O)Nc1ccc(S(=O)(=O)Nc2nccs2)cc1	.	.	-1%	-13	3.6
COc1ccccc1/C=C/C=N/NC(=O)c1ccccn1	2	.	44%	98	12
CCn1c(SCc2cccc(C)c2)nnc1-c1ccccc1	-4	3	5%	-9	0.9
Cc1ccc(S(=O)(=O)NCCCNC(=O)N2CCOCC2)cc1	-4	-2	-6%	-4	-0.1
CCOc1ncccc1C(=O)OCC(=O)c1cc(C)n(Cc2ccco2)c1C	2	-3	-15%	8	4.3
Cn1cnc(Sc2ncnc3nc[nH]c23)c1[N+](=O)[O-]	.	.	9µM*	98	-3.8
Cc1nn(-c2ccccc2)nc1C(N)=O	.	.	-2%	-6	-0.7
N#Cc1c(-c2ccc3c(c2)OCO3)ccn2nc(-c3cccc(C(F)(F)F)c3)nc12	-4	-19	-1%	6	-308
CN(C)/C=C(\C=O)c1ccc(Cl)cc1Cl	9	.	-6%	2	0.8
NC(=S)N/N=C1\CCOc2ccc(F)cc21	.	.	-2%	3	-0.3
O=C(COC(=O)Cn1cnc2ccccc21)Nc1cccc2c1C(=O)c1ccccc1C2=O	-11	-22	5%	60	-0.2
O=c1ccc2ccc(Oc3ccc([N+](=O)[O-])cc3Cl)cc2o1	5	.	0%	17	-5.9

Reprinted at random: 2 records from the list, in no set order.
SMILES	Arbovirus inh	YopH inh	Mtb H37Rv	Mtb bLac sens	RecA intein inh	others
COc1ccc(CNC(=O)c2ccc(NC(=O)CC3SC(N4CCCCC4)=NC3=O)cc2)cc1 (centres undefined)	-3	-34	4%	65	-2.1
CCOc1ncccc1C(=O)OCC(=O)c1cc(C)n(Cc2ccco2)c1C	2	-3	-15%	8	4.3

The listing continues.
SMILES	Arbovirus inh	YopH inh	Mtb H37Rv	Mtb bLac sens	RecA intein inh	others
CCOC(=O)CNC(=O)c1cc(-c2ccccn2)nc2c(C)c(Cl)ccc12	3	.	-1%	66	-4.1
CCc1nnc(NC(=O)CSc2ncnc3c2oc2ccccc23)s1	16	-40	35%	-10	-0.4
CCOc1ccccc1-n1c(C)nc2cc(C(=O)O)ccc21	3	.	1%	-2	1.1
Cc1ccc(C(=O)NCC(=O)OCC(=O)Nc2cc(S(=O)(=O)N3CCOCC3)ccc2C)cc1	.	.	.	1	6.9
COc1ccc(CN(C)CC(=O)Nc2ccc(SC(F)F)cc2)cc1OC	3	.	4%	-3	2.1
CC1CCN(c2c(NCC3CCC(C(=O)NCc4ccccc4Cl)CC3)c(=O)c2=O)CC1 (centres undefined)	3	-18	.	40	1.2
COc1cc(NC(=O)c2ccc(Cl)cc2Cl)ccc1NC(=O)c1cccs1	.	.	.	-5	0.7
COc1ccccc1NC(=O)c1ccc2nc(C)c(C)nc2c1	.	.	.	-21	1.2
Cc1onc(-c2ccccc2Cl)c1C(=O)NC(=S)Nc1ccc(C(C)(C)C)cc1	.	.	8%	4	0.7
O=C(Cc1ccccc1F)Nc1ccccc1-c1ccccc1	-11	.	1%	15	0.0
CCOc1ccccc1N(CC(=O)Nc1cccnc1)S(C)(=O)=O	4	-10	-3%	9	-2.0
COc1ccc(N2CCN(C(=O)CCC(=O)N3CCOc4ccc(C)cc43)CC2)cc1	.	.	.	-2	-3.6
O=C(CCCN1C(=O)c2cccnc2C1=O)Nc1ccc(F)cc1Cl	.	.	.	3	-2.7
Cc1ccc(S(=O)(=O)NN2C(=O)c3ccccc3NC2(C)C)cc1	1	-18	-2%	1	-5.8
CSc1ccccc1NC(=O)CN(C)C(=O)CCc1c[nH]c2ccccc12	.	.	.	2	-0.9
CC(=O)CSc1nnc(NC(=O)CCc2ccccc2)s1	-1	10	0%	-5	3.6
Cc1cc(N2C(=O)C(O)=C(C(=O)c3cccs3)C2c2cccc(O)c2)no1 (centres undefined)	7	3	8%	-7	-2.2
CCCC1=[N+](CC(=O)c2ccccc2)CCn2cccc21	-3	-7	-5%	13	-0.8
O=C(Nc1ccc(S(=O)(=O)NC2=NCCCCC2)cc1)C1COc2ccccc2O1 (centres undefined)	.	.	0%	1	-0.5
CC(=O)c1c(C)[nH]c(C(=O)OCC(=O)NCCC(C)C)c1C	-1	.	3%	6	0.4
CCOC(=O)C1CCN(S(=O)(=O)c2ccc3c4c2CC(=O)N4CC(C)S3)CC1 (centres undefined)	.	.	.	2	9.2
Cc1ccc(N2CC(C(=O)N3CCCc4ccccc43)CC2=O)cc1 (centres undefined)	0	-42	-6%	2	-2.2
Cc1cccc(C(=O)Nc2ccc(C(=O)c3ccccc3)cc2)c1	.	.	.	88	3.0
O=C(c1ccccc1)c1c[nH]c(C(=O)C(Cl)(Cl)Cl)c1	-11	.	1%	-3	46*
COc1ccc(Cl)cc1S(=O)(=O)N1CCCC1	4	-17	-5%	8	-0.2

Among those listed so far, these contain a furan ring, fused or not:
SMILES	Arbovirus inh	YopH inh	Mtb H37Rv	Mtb bLac sens	RecA intein inh	others
CCOc1cccc(C(=O)Nc2nnc(-c3ccco3)s2)c1	5	-17	4%	-9	.	Arbovirus inh repeat=2
CCOc1ncccc1C(=O)OCC(=O)c1cc(C)n(Cc2ccco2)c1C	2	-3	-15%	8	4.3
CCc1nnc(NC(=O)CSc2ncnc3c2oc2ccccc23)s1	16	-40	35%	-10	-0.4

Next part
SMILES	Arbovirus inh	YopH inh	Mtb H37Rv	Mtb bLac sens	RecA intein inh	others
Cc1ccc(-n2[nH]c(C)c(C=Nc3ccc(S(=O)(=O)Nc4nccs4)cc3)c2=O)c(C)c1	0	.	46%	96	1.7
Nc1ccc(-c2ccc(C(=O)O)s2)cn1	0	.	-3%	5	-1.1
C/C(N)=C(/C#N)C(=O)COC(=O)C(NS(=O)(=O)c1ccc(Cl)cc1)C(C)O (centres undefined)	-4	3	-7%	11	-1.3
COc1ccc(N2CC(NS(=O)(=O)c3ccc4ccccc4c3)CC2=O)cc1 (centres undefined)	.	.	.	-1	0.0
O=C(NCC(c1ccco1)N1CCOCC1)c1ccc(F)c(F)c1 (centres undefined)	.	.	.	-7	0.3
CCOC(=O)NC(=O)CSc1nc(C)cc(C(F)(F)F)c1C#N	13	-31	-5%	-3	-4.9
Cc1cc(C)c(S(=O)(=O)Nc2ccc(O)c(Sc3ncn[nH]3)c2)c(C)c1	-1	-36	9%	0	-1.0
CCn1c(SCC(=O)Nc2nc(C)cs2)nnc1C(C)NC(=O)c1ccccc1 (centres undefined)	1	19	0%	-5	2.3
O=C(CCSc1nnc(-c2ccncc2)o1)Nc1ccc(F)cc1	2	-27	-9%	52	3.8
Cc1cc(F)ccc1S(=O)(=O)N1CCCOC1CNC(=O)C(=O)NC1CCCCC1 (centres undefined)	.	.	.	-2	-1.8
Cc1cccc(C)c1NC(=O)CSc1nc(C)c(CC(=O)c2ccc(Br)cc2)c(C)c1C#N	-14	-15	13%	-3	-0.6
CC(C)(C)n1cccc1/C=C1\C(=O)NC(=O)N(c2ccccc2)C1=O	-2	-37	-15%	6	0.4
O=C(c1cccs1)N1C(=O)c2cccc3cccc1c23	-3	.	6%	33	-7.7
CC(=O)NCCc1nc2ccccc2n1Cc1cccc(C)c1	.	.	3%	-3	-3.8
N#CC(/C(=N/S(=O)(=O)c1cccs1)c1ccccc1)c1nc2ccccc2[nH]1 (centres undefined)	11	-15	.	-1	-4.8
COc1cccc(-c2csc3nnc(SCC(=O)NCc4cccs4)n23)c1	-5	-47	0%	-10	0.6
Cc1ccc(NC(=S)NC(CO)C(O)c2ccc([N+](=O)[O-])cc2)cc1 (centres undefined)	4	.	-10%	-12	0.4
O=C(NCCCCCCNC(=O)OC1CCS(=O)(=O)C1)OC1CCS(=O)(=O)C1 (centres undefined)	-2	-23	-12%	-14	.
CCOc1ccc(C(Nc2ccc(C)cc2)P2(=O)OCC(C)(C)CO2)cc1 (centres undefined)	6	2	-4%	-9	-1.8
O=C(O)CCCCCCCCc1cn(CN2C(=O)c3ccccc3C2=O)nn1	.	.	.	-11	-1.8
COc1ccc(Cl)cc1S(=O)(=O)N1CCC(C(=O)NCCC2=CCCCC2)CC1	.	.	.	-15	-1.0
Nc1ccc(C2=Nc3cccc4cccc(c34)N2)cc1	-6	46	.	.	6.0
CC(=O)NC(N1CCCCC1)C(F)(F)C(F)(F)C(F)(F)C(F)F (centres undefined)	1	-35	3%	-13	0.8
CCn1cc(/C=C(\NC(=O)c2ccccc2F)C(=O)NCCCN2CCOCC2)c2ccccc21	.	.	.	5	2.3
O=C(COc1ccc(Br)cc1Br)NC(=S)Nc1cccc(CO)c1	10	-17	4%	-10	0.7
Carrying on.
SMILES	Arbovirus inh	YopH inh	Mtb H37Rv	Mtb bLac sens	RecA intein inh	others
COc1ccc(C2CC(C)=NN2C=O)cc1OC (centres undefined)	7	-21	-4%	-23	2.9
Cc1ccc(CNC(=O)C2CCCN2S(=O)(=O)c2ccc3c(c2)C(C)(C)C(=O)N3C)cc1 (centres undefined)	.	.	.	0	9.1
Cc1ccnc(SC2CC(=O)N(c3ccc([N+](=O)[O-])cc3)C2=O)n1 (centres undefined)	.	.	.	-5	6.2
O=C(c1ccc(OC2CCN(C/C=C/c3ccc(F)cc3)CC2)cc1)N1CCCCC1	.	.	.	1	3.4
Cc1onc(-c2ccccc2)c1-c1n[nH]c(=S)n1-c1ccccc1Cl	4	-12	-1%	3	4.6
CCn1c(SCC(=O)Nc2ccc(Cl)cc2)nc2nc3c(cc2c1=O)CCCC3	14	-19	0%	5	-0.2
CCCCOc1ccc(C2OC34CCCCC3C(C#N)(C#N)C2(C#N)C(=N)O4)cc1 (centres undefined)	4	-25	-7%	-1	-114
CN(C(=O)c1ccc(-c2nn(C)c(=O)c3ccccc23)cc1)C1CCCCC1	.	.	.	48	6.8
O=C(N/C(=C\c1ccc(Br)cc1)C(=O)N1CCOCC1)c1ccco1	.	.	.	5	-0.3
CCOC(=O)c1oc2ccccc2c1N	-5	-35	-5%	-3	0.0
CCOc1cccc(-c2nnc3sc(-c4cc(OC)c(OC)c(OC)c4)nn23)c1	-20	-26	.	15	.
COc1ccc(C(=O)Sc2ccc(Cl)cc2)cc1OC	5	-4	.	74	24
CN(CC(=O)Nc1ccc(N2CCOCC2)cc1)CC(=O)Nc1cccc(C#N)c1	0	-9	-4%	-5	-5.8
COc1ccc(C)cc1S(=O)(=O)N1CCCC(C(=O)NC2CC2)C1 (centres undefined)	.	.	.	-6	0.5
COC(=O)c1cc(OC)c(OC)cc1N	0	-13	-8%	1	-1.8
COc1ccc(CNC(=O)c2cccc(-c3ccc(C)c4ccccc34)n2)cc1	-10	-9	-8%	-4	-1.6
Cc1cc(/C=C2\SC(=Nc3ccc(F)cc3)NC2=O)c(C)n1-c1ccc(S(N)(=O)=O)cc1	-24	-23	53%	98	-9.2
COc1ccc(C2C(C(C)=O)=C(O)C(=O)N2CCc2c[nH]c3ccccc23)cc1OC (centres undefined)	10	-18	4%	-12	-2.3
Cc1[nH]n(-c2ccccc2)c(=O)c1C(C[N+](=O)[O-])c1ccc(F)cc1 (centres undefined)	-6	-4	?	98	76*
